High-throughput results: PubChem BioAssay, National Center for Advancing Translational Sciences (NCATS)
gsp ag: gsp mutant agonism. gsp mutant cells, cAMP HTRF, 30 min; control for the full effect not named in the record. Potency, µM (series often up to 76.9 µM), without a hit: at the highest dose activation (cAMP increase), usual class: activators. 0.13% of 340,000 active. AID 624287; active = well fitted activation curve with a large enough effect; inconclusive = small, poorly fitted or top-dose-only effect, or another doubt; inactive = no such curve, though single readings can be large or run the other way; cell line not stated here;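 further: phosphodiesterase inhibitor Ro 20-1724 added with compounds to block cAMP breakdown; potency means the concentration at half of the fitted maximal effect; nearly all actives have a fitted effect of over 60% in size; about a fifth of the inactives were tested at one dose only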
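Cells stably selected in G418 were plated at 2000/well, grown 16-24 hr, then given compounds in DMSO with the PDE inhibitor […] (300 uM solution added) for 30 min at 37C; cAMP was read by HTRF.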
TRPML1 ag: agonists of human TRPML1 channel | Q9GZU1 | TRPML1-expressing cells, Ca2+ dye fluorescence, FDSS; host cell line not named in the record; reference of the full effect not given here | activation, % (no concentration beside the values) | 0.12% of 410,000 active | AID 624414; in the data active = activation above about 50%; inconclusive = about 30% to 50%; inactive = below about 30%; further: 0% is about no effect; the text of the record puts the active cut at 80%
Target sequence (Q9GZU1 whole entry, looked up): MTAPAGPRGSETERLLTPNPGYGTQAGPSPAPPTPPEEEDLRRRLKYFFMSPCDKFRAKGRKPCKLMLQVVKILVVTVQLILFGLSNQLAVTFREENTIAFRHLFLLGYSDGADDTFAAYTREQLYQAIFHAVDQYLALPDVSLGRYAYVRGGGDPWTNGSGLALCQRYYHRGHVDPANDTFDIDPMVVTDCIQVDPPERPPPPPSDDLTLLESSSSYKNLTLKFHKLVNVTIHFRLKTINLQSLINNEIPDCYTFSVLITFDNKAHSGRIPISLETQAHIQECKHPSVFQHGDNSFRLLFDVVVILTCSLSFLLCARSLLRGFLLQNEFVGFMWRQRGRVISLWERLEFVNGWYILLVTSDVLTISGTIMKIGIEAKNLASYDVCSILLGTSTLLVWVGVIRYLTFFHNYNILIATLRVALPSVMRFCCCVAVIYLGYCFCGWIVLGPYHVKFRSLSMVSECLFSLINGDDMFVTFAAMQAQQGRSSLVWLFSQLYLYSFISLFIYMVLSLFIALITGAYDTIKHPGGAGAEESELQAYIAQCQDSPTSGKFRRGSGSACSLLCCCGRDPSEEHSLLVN
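Calcium fluorescence on an FDSS kinetic reader gave the read-out. Tet-induced TRPML1-DL cells were plated overnight, dye-loaded (Ca8 with quencher, 45-90 min, room temperature, dark), then read 110 s after compound addition, and again 110 s after 4uM final 54-4 (EC80).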
TRPML1 inh: blocks the human TRPML1 channel | Q9GZU1 | TRPML1-inducible cells, Ca2+ dye fluorescence, FDSS; hits give low values; inhibition of EC80 agonist-evoked calcium signal | 0.02% of 390,000 active | AID 624415 | activity change, negative = inhibition, % (concentration not given with the values); in the data active means activity change below about -50%; inconclusive means about -30% to -50%; inactive means above about -30%;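 further: stimulus is agonist 54-4 at its EC80 concentration; on the % scale 0 is the no-effect control and ±100 the full control effect; compound concentration not given in the record; the text of the record puts the active cut at -80%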
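Tet-induced TRPML1-DL cells loaded with Ca8 no-wash calcium dye were read kinetically on FDSS. Compound addition was followed by EC80 agonist 54-4 (4 uM final); inhibition was read over 110 s.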
ClpP mod: qHTS Assay for Activators of ClpP. ATP-dependent Clp protease proteolytic subunit (Bacillus subtilis (strain 168)), P80244. purified B. subtilis ClpP, FRET peptide cleavage, 20 min. Potency, µM (series often up to 57.5 µM), without a hit: at the highest dose activity change, negative = active. 1.9% of 340,000 active. AID 651965, 2013; active = well fitted falling curve with a large enough effect; inconclusive = small, poorly fitted or top-dose-only effect; inactive = no such curve, though single readings can be large or run the other way; further: potency means the concentration at half of the fitted maximal effect; the source files actives as falling curves though it sought activators and does not explain the sign; nearly all actives have a fitted effect of over 65% in size; many hits overshoot -100%
Target sequence (P80244 whole entry, looked up): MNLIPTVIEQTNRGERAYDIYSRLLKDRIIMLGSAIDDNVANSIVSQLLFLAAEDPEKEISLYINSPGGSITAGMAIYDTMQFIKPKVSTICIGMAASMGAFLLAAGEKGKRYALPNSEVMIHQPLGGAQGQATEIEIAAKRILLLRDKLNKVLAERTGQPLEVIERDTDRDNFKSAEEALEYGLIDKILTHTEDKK
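Purified B. subtilis ClpP, 10 microg/mL final in Tris/HCl pH8 with KCl, BSA, glycerol and Tween-20, cleaved an Abz/nitrotyrosine-quenched decapeptide. Fluorescence (ex 320, em 430) was read at 0 and 20 min at room temperature. Delta was normalized to 5.8 microM ADEP and DMSO/no-enzyme controls.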
gsp antag: gsp mutant antagonism | Potency, µM (series often up to 76.9 µM), for inactives: at the highest dose activity change, negative = inhibition, actives largely listed as inhibitors | gsp-mutant cells, cAMP HTRF, 30 min; control for the full effect not named in the record | 0.4% of 340,000 active | AID 624288; active = falling curve of any shape with a large fitted effect; inconclusive = falling curve, mostly with a smaller effect; inactive = flat or rising curve; cell line not stated here;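 further: intracellular cAMP measured with PDE inhibitor Ro 20-1724 present during compound exposure; potency means the concentration at half of the fitted maximal effect; on the % scale 0 is the no-effect control and ±100 the full control effect; nearly all actives have a fitted effect of over 65% in size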
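G418-selected cells were plated in DMEM/10% FBS for 16-24 h at 37C, then treated with compounds plus the PDE inhibitor […] (300 uM solution added) for 30 min at 37C. Intracellular cAMP was measured by HTRF after 30 min lysis at room temperature.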
Menin MLL FP FL: inhibitors of human menin-MLL interaction, wild-type MLL peptide | Fluorescence polarization, fluorescein-MLL peptide displacement from menin | FP activity change, % at 61.4 µM | 290,000 tested, under 10 active | AID 1766; inconclusive = falling polarisation curve, or a change in total fluorescence; inactive = total fluorescence flat and polarisation flat or rising; no compound was filed as active; the % refers to the polarisation; negative = inhibition;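 further: % of control where 0% means no effect; inhibitors lower the polarisation; unlabelled MLL peptide was the positive control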
An asterisk follows results filed as active; ? = inconclusive; nt = not tested or not shown; & = joins results of further samples; [ ] = remark or other dose.

Compound,gsp ag,TRPML1 ag,TRPML1 inh,ClpP mod,gsp antag,Menin MLL FP FL
Cc1cc(C)nc(-n2ncc3c2CCCC3=O)n1,6%,0.2,-3,1.5%,-11%,1.4
CN(C)CCNC(=O)C1CCN(Cc2cc3ccccc3n2Cc2ccccc2)CC1,nt,1.3,-1,-2.9%,nt,nt
COc1ccc(S(=O)(=O)Nc2ccccc2C(=O)N2CCCCC2)cc1C,-19%,2.5,-6,1.0%,-1%,nt
COc1ccc(OC)c(C(=O)c2c(N)c(-c3nc(-c4ccc(C)c(C)c4)cs3)c3ccccn23)c1,nt,1.2,1,-0.5%,nt,nt
C/C(=N\NS(=O)(=O)c1ccccc1)c1cc(Cl)cc(Cl)c1O,-9%,0.0,-4,nt,-23%,-1.6
Cc1ccc(NS(=O)(=O)c2cccc(C(=O)NCC(c3ccco3)N3CCCC3)c2)cc1 (stereo not drawn),-9%,4.7,-9,-4.4%,4%,nt
CC(C)(C)N1C(=O)c2ccc(C(=O)Nc3cc(C(=O)O)cc(C(=O)O)c3)cc2C1=O,-23%,-0.5,-4,-0.5%,5%,-0.2
CC(C)OCc1ccc(C(=O)N2CCN(CC(=O)N3CCCC3)CC2)cc1,-6%[15.4 µM],0.6,16,0.2%,12%,nt
COc1ccc(C(=O)Oc2ccc3c(c2)OCO3)cc1OC,-24%,0.7,-5,0.4%,3%,1.1
C[C@]12C=CC(=O)C=C1CC[C@H]1[C@@H]3C[C@@H](O)[C@](O)(C(=O)CO)[C@@]3(C)C[C@H](O)[C@@]12F,nt,0.1,14,-0.4%,-1%,-0.1&1.9
COc1ccc(CCNC(=O)C2CCN(C(=O)c3ccc(OC)c(OC)c3)CC2)cc1,-12%[15.4 µM],0.4,5,-5.8%,1%,0.3
Cc1c(Cc2ccccc2)c(=O)oc2cc(OCc3ccc(C(=O)O)cc3)ccc12,18%[15.4 µM],1.5,4,nt,-17%,-1.0
O=C(CCn1c(=S)[nH]c2ccccc2c1=O)NCCCN1CCOCC1,9%,0.2,0,-0.4%,14%,4.5
COc1ccc(-c2onc(C)c2C)cc1S(=O)(=O)N1CCN(c2ccc(Cl)cc2)CC1,nt,0.5,18,-2.2%,nt,nt
CCOC(=O)c1ccc2[nH]c(C)c(CN3CCN(C)CC3)c(=O)c2c1,-47%,-0.2,-8,-0.5%,5%,nt
Cn1c(=O)c2c(-c3ccc(C(C)(C)C)cc3)n(CC3CCCO3)cc2n(C)c1=O (stereo not drawn),0%,-0.6,-2,-8.9%,3%,1.7
O=C(Nc1ccc(O)c(-c2nc3ccccc3o2)c1)c1cccs1,nt,2.4,0,0.8%,nt,nt
O=C(N/N=C/C(Br)=C/c1ccccc1)C1CC1,-5%[15.4 µM],-0.7,11,0.4%,0%,1.7
O=C(N1CCOCC1)C(F)(F)C(F)(F)C(F)(F)C(F)(F)C(=O)N1CCOCC1,15%,0.3,2,1.6%,1%,0.0
C1=C[C@@H]2CCN(Cc3ccccc3)Cc3cccc(c32)C1,nt,2.4,-6,-2.0%,9%,nt
CCN(C(=O)CN1C(=O)COc2ccc(S(=O)(=O)N3CCOCC3)cc21)c1ccc(OC)cc1,11%,0.1&3.1,-17&2,-4.2%&0.2%,17%,4.9
COc1ccc(N(C(=O)c2cccc(OC)c2OC)C2C=CS(=O)(=O)C2)cc1 (stereo not drawn),-33%[inhibitor],0.2,-2,0.4%,-3%,2.9
CCOC(=O)c1c(SCC(=O)Nc2cc(Cl)cc(Cl)c2)nc(=O)[nH]c1C,nt,-0.9,6,-4.3%,nt,nt
CC(=O)c1ccc(OC(=O)N(c2ccccc2)c2ccccc2)cc1,4%,2.7,10,?,-5%,-1.7
NS(=O)(=O)c1ccc(CCNC(=O)CSCC(=O)Nc2ccc(Cl)cc2)cc1,-11%,0.3,-6,-3.0%,14%,nt
COc1cc(SC)ccc1C(=O)Nc1ccc(S(=O)(=O)Nc2nccc(C)n2)cc1,nt,0.9,2,0.6%,nt,nt
O=C(CCN1C(=O)C2CCCCC2C1=O)Nc1nc(-c2ccccc2)cs1 (stereo not drawn),-24%,1.6,-15,1.9%,-8%,4.3
CCCCc1ccc(-c2nc(N)n[nH]2)cc1,?,3.6,2,-24%,-1%,-1.2
O=C(NCCc1nnc2ccc(NCCCN3CCOCC3)nn12)c1ccccc1F,?,-0.3,3,-6.6%,12%,7.6
O=[N+]([O-])C1=CC=C2C(=NC3(CCCCC3)N2O)C1=NC1CCCCC1,-66%[inhibitor],0.5,3,-3.5%,-12%,-2.9
COc1ccccc1CNC(=O)c1cnccn1,12%,0.3,0,-5.1%,-3%,1.5
O=C(/C=C/c1ccc(F)cc1)NC(=S)NNC(=O)[C@H]1C[C@@H]1c1ccccc1,1%,4.0,13,1.2%,3%,0.0
CCN(CC)c1ccc(CNc2nc3ccccc3n2C(C)C)cc1,3%,2.1,-14,-5.0%,-5%,-0.7
CC(C)(C)NC(=O)C(c1ccncc1)N(C(=O)c1csnn1)c1ccccc1 (stereo not drawn),-33%,-0.1,-24,0.9%,7%,0.5
Cc1ccc(C(=O)NCC(=O)OCc2cc(=O)n3c(C)csc3n2)cc1,nt,-0.6,-1,4.3%,nt,nt
CCc1ccc(/C(C)=N\Nc2ccc([N+](=O)[O-])cc2)cc1,-2%,3.8,2,-0.6%,-3%,?
O=C(CSc1n[nH]c(=O)[nH]c1=O)c1ccc([N+](=O)[O-])cc1,8%[15.4 µM],0.9,3,nt,-3%,5.0
O=C(CSc1ccc(Br)cc1)N1CCN(C(=O)c2ccco2)CC1,5%[15.4 µM],0.4,-10,nt,-7%,-5.4
Nn1c(SCC(=O)Nc2c(Cl)cccc2Cl)nncc1=O,1%[15.4 µM],0.3,13,nt,9%,nt
CC(C)Sc1nc2c(c(=O)n1-c1ccc(F)cc1)SCC2,-4%,3.3,-7,-4.1%,-16%,0.2
O=C(O)CCCCCNc1ccc2nsnc2c1[N+](=O)[O-],?,-0.4,-8,5.8%,5%,2.3
O=C(NCc1ccccc1)c1ccc(NC(=O)c2ccccc2F)cc1,-26%,0.0,17,?,9%,nt
O=C(Nc1ccc2c(c1)OCO2)c1ccccc1SCC(=O)N1CCCC1,9%,-0.5,-2,-0.1%,3%,-0.9
CSc1ccccc1NC(=O)COc1ccc2c(c1)OCO2,2%,3.7,-7,-1.7%,4%,nt
Cc1ccc(Cn2c(=O)c3ccccc3n3nc(C)cc23)cc1,-9%[15.4 µM],-0.4,-6,nt,-4%,0.9
COCCSc1nnc(NC(=O)Cc2cccs2)s1,10%,0.8,1,-0.3%,0%,1.6
O=C(COC(=O)C1CC1)Nc1ncc(C(F)(F)F)cc1Cl,3%,-0.1,1,-0.4%,1%,?
COc1ncnc(OC)c1S(=O)(=O)NCc1ccccc1,-8%[15.4 µM],-0.8,5,0.5%,0%,-1.7
O=C(c1ccc(N2CCCS2(=O)=O)cc1)N1CCN(c2ccccc2)CC1,6%,-0.5,-20,nt,-3%,-0.6
Cc1noc(-c2ccc(N3CCCCC3)c([N+](=O)[O-])c2)n1,nt,-0.9,22,0.0%,nt,nt
N=c1n(CCO)c2ccccc2n1Cc1ccccc1F,nt,0.6,-2,-2.4%,nt,nt
CC(=O)NC(CC(=O)OCC(=O)c1c(N)n(CC(C)C)c(=O)n(C)c1=O)c1ccccc1 (stereo not drawn),-30%,0.4,49,-1.1%,-13%,nt
COc1ccc(C2C(=O)c3ccccc3C2=O)cc1OC,0%,-1.0,-1,nt,-10%,8.5
CCN1C(=O)[C@@H]2[C@@H](c3ccc(SC4CCCCC4)cc3)N3CCCC[C@@]3(C(=O)OC)[C@@H]2C1=O,28%,1.6,-21,-0.9%,-5%,nt
CC(C)Cn1c(=O)c(-[n+]2ccccc2)c([O-])c2ccccc21,13%,0.3,3,nt,2%,2.2
CCC(CC)C(=O)OCC(=O)NC12CC3CC(CC(C3)C1)C2,9%,-0.7,1,0.0%,5%,-0.4
O=C1c2oc3ccc(Cl)cc3c(=O)c2C(c2cccc(Br)c2)N1CCO (stereo not drawn),-8%,0.2,0,0.7%,-8%[15.4 µM],0.0
CCOc1ccc(NC(=O)c2c(NCc3cccnc3)sc3c2CCCC3)cc1,nt,0.3,-24,-3.9%,nt,nt
COc1ccc(CCNC(=O)COc2ccccc2[N+](=O)[O-])cc1OC,0%,0.7,-12,nt,1%,-1.1
CCc1ccc(CN(C)C(C)C(=O)Nc2ccc(S(=O)(=O)N3CCCC3)cc2)cc1 (stereo not drawn),12%,1.0,8,3.3%,-9%,nt

Next part.
Compound,gsp ag,TRPML1 ag,TRPML1 inh,ClpP mod,gsp antag,Menin MLL FP FL
Cc1c(Cl)c([N+](=O)[O-])nn1CCCC(=O)N(Cc1ccccc1)Cc1ccccc1,?,4.6,34,-1.3%,?,7.6
COc1cc(OC)cc(C(=O)NNC(=O)CN2C(=O)NC(C)(c3ccccc3)C2=O)c1 (stereo not drawn),1%,-0.8,-3,-6.2%,6%,nt
CC1(C)C2CCC1(CS(=O)(=O)Nc1ccccc1)C(=O)C2 (stereo not drawn),10%,-0.2,15,nt,10%,0.9
CC1CC(C)CN(C(=O)CCNC(=O)Cn2ccc3ccccc3c2=O)C1 (stereo not drawn),-30%,0.0,-8,nt,-2%,0.6
COc1cccc(CNC(=O)C2CCN(S(=O)(=O)c3cccc4cccnc34)CC2)c1,25%,0.4,3,0.6%,1%,5.7
O=C(NC(=S)N1CCN(c2ccc([N+](=O)[O-])cc2Cl)CC1)c1ccco1,-3%,6.9,29,1.6%,-1%,-0.4
COc1ccc(Cc2n[nH]c(=S)n2C)cc1Br,6%,1.2,-12,nt,0%,-10
O=c1c2ccccc2nnn1CCc1ccccc1,6%,-1.0,9,1.1%,nt,nt
COc1ccc(C(=O)Nc2ccc(NC(C)=O)cc2)cc1S(=O)(=O)N(C)Cc1ccccc1,45%,-0.1,7,-1.6%,-17%,nt
Cc1ccc(CN2C(=O)C(O)(c3c(C)[nH]c4ccccc34)c3ccccc32)cc1 (stereo not drawn),nt,0.5,34,-2.9%,nt,nt
CCCc1ccc(OC(=O)c2sc3ncn(Cc4cccc(F)c4)c(=O)c3c2C)cc1,nt,0.6,21,-3.7%,nt,nt
